Screens: PubChem, Center for Chemical Genomics, University of Michigan
CDC25B-CDK2 inh = human CDC25B-CDK2/CyclinA binding inhibition. z-score (no concentration beside the values). HTRF CDC25B-CDK2/CyclinA binding, anti-His/anti-Flag; active compounds read high. P30305+P24941. actives 0.72% (n = 94,000);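 further: score is relative to mean and SD of negative controls; strong numbers were not always called active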
HIV TAR-Tat = HIV-1 TAR-Tat binding disruption. AID 1259389. HIV-1 TAR RNA, Tat peptide displacement FRET; active compounds read high. z-score (no concentration beside the values). actives 0.6% (n = 100,000);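 further: score is relative to mean and SD of negative controls; some compounds called inactive have numbers as strong as hits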
* marks the source's active call; other numbers are inactive results; · = no result given.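 How the source made its calls: active means z-score from 3 up in half or more of its runs; inactive means the rest.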

SMILES | CDC25B-CDK2 inh | HIV TAR-Tat
COc1ccc(NC(=O)c2ccc(-c3ccc(-c4noc(C)n4)cc3C)cc2)cc1N1CCN(C)CC1 | -2.03 | ·
Cc1cc(=O)oc2cc(OCC(=O)NCC3CCCO3)ccc12 (configuration not stated) | 1.34 | ·
COc1ccccc1-c1nnc2n1N=C(c1ccc(C)cc1)CS2 | · | 0.35
O=C(CSc1nccn1Cc1ccccc1)Nc1nc2ccccc2s1 | · | -6.04
CCOC(=O)c1c(NC(=O)C2COc3ccccc3O2)sc(C(C)=O)c1C (configuration not stated) | -2.64 | ·
OCCCCn1c(-c2ccccc2)nc2ccccc21 | -1.4 | ·
Cc1cccc(C)c1OCc1nnc2c3cnn(Cc4ccccc4)c3ncn12 | 1.34 | 1.59
CCCCSc1nc2c(c(=O)[nH]1)C(c1ccncc1)C(C(=O)OCC)=C(C)N2 (configuration not stated) | -0.25 | -1.02
CCCC(=O)Nc1ccc2nc(SCc3cc(=O)n4ccsc4n3)sc2c1 | · | 0.22
O=C(O)c1cc(-c2cccnc2)nc2ccccc12 | -1.36 | ·
Nc1cc(-c2ccccc2)nn1S(=O)(=O)c1c(F)c(F)c(F)c(F)c1F | -2.83 | ·
O=C(Cn1cnc(S(=O)(=O)N2CCc3ccccc32)c1)Nc1ccc2c(c1)OCCO2 | · | -0.37
c1csc(-c2ccn3cnnc3n2)c1 | -1 | ·
CCC1SC2=NC(C)=C(C(=O)OCc3ccccc3)C(c3ccccc3)N2C1=O (configuration not stated) | -1.77 | -0.01
CC1(C(=O)NC2CCCCC2)Cn2c(ccc2-c2ccco2)C(=O)N1Cc1ccco1 (configuration not stated) | · | -6.86
CCOC(=O)c1c(NC(=O)CSc2nnc3c(n2)[nH]c2ccccc23)sc2c1CCCC2 | -2.28 | 3.15
CC(=O)Nc1ccc2c(c1)CCC2=O | 0.23 | -0.06
CCSc1nnc(NC(=O)c2ccncc2)s1 | -1.7 | 1.09
CC(C)CCNS(=O)(=O)c1cc2c(cc1Cl)NC(=O)CO2 | · | -2.36
C=CCc1ccccc1OCc1nc2ccccc2n1CC | -0.83 | 3.3
O=C(Nc1ccc2c(c1)OCO2)c1[nH]nc2c1CCc1ccccc1-2 | · | -1.2
Cn1c(=O)n(C)c2cc(NS(=O)(=O)c3ccc(C4CCCCC4)cc3)ccc21 | -0.78 | 1.35
CCCN1CCN(C(=O)CN2C(=O)COc3ccc(S(=O)(=O)N4CCOCC4)cc32)CC1 | · | -0.83
Cc1ccc(Cc2c(C)[nH]n(-c3nc4ccccc4[nH]3)c2=O)cc1 | · | 1.4
O=C1c2cccnc2C(=O)N1Cc1ccc(S(=O)(=O)Nc2cccc(Br)c2)s1 | · | -0.16
CC(C)NC(=O)CCc1nnc2ccc(N3CCCC3)nn12 | · | -0.26
CCC(Sc1ccc2nnc(-c3ccc(F)cc3)n2n1)C(=O)O (configuration not stated) | -1.8 | ·
COC(=O)C1=C(C)NC2=C(C(=O)CC(C)(C)C2)C1c1ccc(C)s1 (configuration not stated) | -1.34 | 1.62
N[C@@H]1[C@@H](O[C@@H]2O[C@H](C(=O)O)[C@@H](O)[C@H](O)[C@H]2O)[C@@H](O)[C@@H](CO)O[C@@H]1O | · | 2.2
COC(=O)c1ccc(NS(=O)(=O)c2c(C(=O)OC)sc3ccccc23)cc1 | · | -0.7
Cn1ncc([N+](=O)[O-])c1C(=O)Nc1ccc2nc(NC(=O)C3CCCCC3)sc2c1 | -1.61 | -6.51
COC(=O)c1sccc1NC(=O)c1cc(S(=O)(=O)C(C)C)c(SC)s1 | -1.55 | ·
Cc1cc(-c2ccc(C)c(S(=O)(=O)CCC(=O)Nc3cc(C)on3)c2)on1 | · | -0.75
Cc1csc2nc(CNS(=O)(=O)c3ccc(Cl)cc3)cn12 | -0.51 | ·
CC1CCN(CCCCOc2ccccc2Br)CC1 | -0.02 | 0.93
CCC(C)NC(=O)Cn1ccc2cc(S(=O)(=O)N3CCCC3)ccc21 (configuration not stated) | · | -0.64
CCc1cc2c3c([nH]c2cc1S(=O)(=O)N1CCOCC1)CCCC3=O | · | 1.13
CCOC(=O)c1cnn(-c2nc(-c3ccccc3)cs2)c1C(F)(F)F | -1.05 | ·
CCOC(=O)c1cc(S(=O)(=O)N(C)CC(=O)N2CCc3ccccc32)cn1C | · | 0.74
Cc1cc(=O)c2nncn2[nH]1 | -0.52 | ·
O=C1c2ccccc2C(=O)C1c1ccccn1 | -1.18 | 1.75
CCn1c(=S)sc2c(=O)n(-c3ccccc3)c(SCC(=O)NCc3ccco3)nc21 | 0.78 | 0.47
CCOc1ccc(-c2nnc3ccc(SC)nn23)cc1 | -2.87 | ·
CC1=C(c2ccc(Cl)cc2)S(=O)(=O)N=C1N(C)Cc1ccccc1 | -1.48 | -1.2
CC(C)N(Cc1nc(-c2ccc(Cl)cc2)no1)C(=O)CCC1CCCC1 | -2.06 | ·
CC(Oc1cc2oc(=O)c3c(c2cc1Cl)CCCC3)C(=O)O (configuration not stated) | -0.65 | ·
CCc1cccc(Nc2nc3ccc(C)cc3n3nnnc23)c1 | · | -2.91
CCCOC(=O)C1=C(C)NC2=C(C(=O)CC(C)(C)C2)C1c1ccc(OC)cc1 (configuration not stated) | -0.85 | -0.01
COc1ccc(NC(=O)c2nn(-c3ccc(Cl)cc3)ccc2=O)cc1 | -1.22 | 1.07
COc1ccc2nc3oc(C(=O)N4CCCCCC4)cc3cc2c1 | -1.83 | ·
O=C(NCc1ccco1)c1sc(=S)n2c1[nH]c(=O)c1ccccc12 | · | 2.05
CC(C)CNC(=O)c1cc2n(n1)C(C(F)(F)F)CC(c1ccco1)N2 (configuration not stated) | 0.68 | 0.27
Cn1c(=O)oc2cc(S(=O)(=O)N3CCCC(C(=O)Nc4ccc(F)cc4)C3)ccc21 (configuration not stated) | -0.3 | 2.65
O=S(=O)(Cc1nc(COc2c(Cl)cccc2Cl)no1)c1ccc(Cl)cc1 | -2.38 | ·
Cn1c(=O)oc2cc(NC(=O)C3COc4ccccc4O3)ccc21 (configuration not stated) | -1.34 | -0.33
N#CC1=C(SCC(=O)Nc2ccc(F)cc2)NC(=O)C(C#N)C12CCCCC2 (configuration not stated) | -1.76 | ·
CCCCN(C)C(=O)Cn1cc2c(n1)-c1c(oc(C(=O)N3CCCC3)c1C)CC2 | · | -1.17
N#Cc1nc(-c2ccc(S(=O)(=O)N3CCc4ccccc4C3)cc2)oc1NCc1ccccc1 | -1.06 | -0.42
CN(C)c1ccc(C2CC(c3c(O)n(C)c(=O)[nH]c3=O)=Nc3ccccc3S2)cc1 (configuration not stated) | -0.53 | 2.34
CCC(C(=O)NCCC(C)C)N1C(=O)CCn2nc(C)cc21 (configuration not stated) | · | 2.45
Carrying on.
SMILES | CDC25B-CDK2 inh | HIV TAR-Tat
Nc1ncc(Br)cc1S(=O)(=O)NCCc1ccccc1 | -1.19 | 1.17
O=C(NC1Cc2ccccc2C1)c1ccc2c(c1)OCCCO2 | -1.61 | ·
Cc1nnc(NC(=O)c2cc(=O)c3cc(Cl)ccc3o2)s1 | -1.85 | 0.9
CC(C)CN(CC(C)C)S(=O)(=O)c1ccc2c(c1)N(C)C(=O)CC(=O)N2C | -1.41 | 2.18
N#Cc1ccc(NC(=O)Nc2ccccc2F)cc1 | -0.85 | ·
O=c1sc2ccccc2c(Nc2ccccc2)c1[N+](=O)[O-] | -1.78 | 1.64
COc1ccc(N2CCN(CCCNc3ncnc4c3cnn4C)CC2)cc1 | · | 2.93
CN1CCN(c2ccc3nnc(CCC(=O)NC4CCCC4)n3n2)CC1 | · | -1.23
COc1ccc(OC)c(CNC(=O)NC2COc3ccccc3C2)c1 (configuration not stated) | · | 0.37
CC(C)(C)c1ccc(S(=O)(=O)c2c[nH]c3ccc(Br)cc3c2=O)cc1 | -1.59 | 1.55
Cc1oc(-c2ccccc2)nc1Cn1cccc1C1=NC(c2ccccc2)CO1 (configuration not stated) | -0.66 | ·
CCOC(=O)C1=C(C)Nc2nc(SCc3ccc(C(=O)O)cc3)nn2C1c1ccc(Cl)cc1 (configuration not stated) | -0.88 | 0.4
Cc1ccc(-c2nc3scc(CCNS(=O)(=O)c4cc(C)ccc4C)n3n2)cc1 | · | -0.02
CCS(=O)(=O)Nc1ccc(CCc2nc3ccccc3n2C)cc1 | · | 0.51
CCOC(=O)CSc1nc(N)c(C#N)c(-c2ccc(O)cc2)c1C#N | -1.61 | ·
CCN(CCCNS(=O)(=O)c1cc(-c2cc(C)no2)ccc1C)Cc1ccccc1 | · | 1.68
O=C(Nc1nccs1)c1cc(N2C(=O)C3C4CCC(C4)C3C2=O)ccc1Cl (configuration not stated) | -1.86 | ·
CCCOC(=O)C1C2C=CC3(CN(CC4CCCO4)C(=O)C13)O2 (configuration not stated) | -0.79 | ·
CCc1ccc(OCCSc2nc(-c3cccs3)nc3cc(=O)[nH]n23)cc1 | · | 1.73
CCc1cccc(NS(=O)(=O)c2cc(Br)cnc2N)c1 | -2.15 | 0.57
Cc1c(NC(=O)Nc2ccccn2)sc2nc3n(c(=O)c12)CCC(C)CC3 (configuration not stated) | 0.28 | 0.29
Cc1ccccc1Cn1c(=S)[nH]c2ccccc21 | 0.75 | ·
O=C(Nc1ccc(Cl)cc1)c1sc(=S)n2c1[nH]c(=O)c1ccccc12 | -1.77 | -0.13
O=C(CCn1c(=S)[nH]c2ccsc2c1=O)N1CCCC1 | -0.13 | ·
O=C(Nc1cc(C(F)(F)F)ccc1Cl)C(=S)N1CCOCC1 | -1.03 | ·
NC(=O)NS(=O)(=O)c1ccc(N)cc1 | -1.5 | 1.96
N#CCOc1ccc([N+](=O)[O-])cc1 | 0.24 | ·
CCN(CC)c1ccc(NC(=O)c2cc3c(=O)n4ccccc4nc3n2C)c(C)c1 | · | 1.22
CCOCCCn1c(=O)c(C#N)cc2c(=O)n3ccccc3nc21 | -0.82 | -0.71
Cc1ccc(S(=O)(=O)c2c[nH]c3ccccc3c2=O)cc1C | -3.65 | -0.34
N#Cc1ccc(SCCOC(=O)Nc2ccc(OC(F)(F)F)cc2)c([N+](=O)[O-])c1 | -0.01 | ·
O=C(Cc1csc2ccccc12)NCc1ccco1 | 1.64 | -0.13
CCOc1ccc(-n2ccc(=O)c(C(=O)Nc3nc(C)c(C(=O)OCC(C)C)s3)n2)cc1 | -1.22 | -1.22
COc1c(Cl)cc(Cl)c(OC)c1C(=O)NNC(=S)NC(C)(C)C | -0.31 | ·
COc1cccc(C(Nc2ccccn2)c2ccc3cccnc3c2O)c1 (configuration not stated) | -0.41 | ·
Cc1ccc2c(c1)c1c3n2CCN(CC(O)CN2CCN(C(=O)c4ccco4)CC2)C3CCC1 (configuration not stated) | -3.58 | ·
COCCCNC(=O)Cn1cc2c(n1)CCCCCC2 | -0.88 | 0.98
O=C(O)c1cccc(CN2C(=O)SC(Nc3cccc(C(=O)O)c3)C2=O)c1 (configuration not stated) | -2.95 | ·
COc1ccc2[nH]cc(CCNC(=O)Nc3ccc(F)cc3)c2c1 | -0.34 | ·
Fc1ccc(CSc2nc3cccnc3n2Cc2cn3ccccc3n2)cc1 | · | 1.18
CCSCCOC(=O)C1=C(C)NC2=C(C(=O)C(C(=O)OC)C(C)C2)C1c1ccc(C)o1 (configuration not stated) | 0.37 | 0.24
CCc1ccc(C(=O)CSc2nc3nc(C)cc(C)c3c(=O)[nH]2)cc1 | 0.05 | -1.88
O=[N+]([O-])c1cc(/C=N/N2CCOCC2)cs1 | -0.79 | ·
CCOc1ccc(-c2noc(CSc3nnc(C)n3-c3ccc(OCC)cc3)n2)cc1 | 0.29 | -3.1
CCOC(=O)C1CCN(C(=O)C(=O)Nc2ccc3nc4n(c(=O)c3c2)CCCCC4)CC1 | -1.18 | ·
NC(=O)c1c(NC(=O)c2ccc(Br)cc2)sc2c1CCCC2 | -0.96 | 0.32
O=C(Nc1ccc(Cl)cn1)C1CCN(c2ncnc3c2nc2n3CCCCC2)CC1 | · | 0.78
COC(=O)C1=C(C)Nc2nc3ccccc3n2C1c1ccccc1Cl (configuration not stated) | -0.41 | 0.18
COc1ccc(OC)c(C2CC(=O)N3CN(c4ccc(F)cc4)CSC3=C2C#N)c1 (configuration not stated) | 3.97* | -2.08
O=C(Sc1n[nH]c(C(F)(F)F)n1)c1ccc(C#Cc2ccccc2)o1 | -0.35 | ·
CCOC(=O)Cn1c(=O)oc2cc(S(=O)(=O)Nc3ccc(OC)cc3OC)ccc21 | -1.05 | 0.14
Cc1cc(Nc2ccc(C)c(Cl)c2)n2ncnc2n1 | -2.54 | 1.15

Structural class, the entries above containing an aryl methoxy group (12)
SMILES | CDC25B-CDK2 inh | HIV TAR-Tat
COc1ccc(NC(=O)c2ccc(-c3ccc(-c4noc(C)n4)cc3C)cc2)cc1N1CCN(C)CC1 | -2.03 | ·
COc1ccccc1-c1nnc2n1N=C(c1ccc(C)cc1)CS2 | · | 0.35
CCCOC(=O)C1=C(C)NC2=C(C(=O)CC(C)(C)C2)C1c1ccc(OC)cc1 (configuration not stated) | -0.85 | -0.01
COc1ccc(NC(=O)c2nn(-c3ccc(Cl)cc3)ccc2=O)cc1 | -1.22 | 1.07
COc1ccc2nc3oc(C(=O)N4CCCCCC4)cc3cc2c1 | -1.83 | ·
COc1ccc(N2CCN(CCCNc3ncnc4c3cnn4C)CC2)cc1 | · | 2.93
COc1ccc(OC)c(CNC(=O)NC2COc3ccccc3C2)c1 (configuration not stated) | · | 0.37
COc1c(Cl)cc(Cl)c(OC)c1C(=O)NNC(=S)NC(C)(C)C | -0.31 | ·
COc1cccc(C(Nc2ccccn2)c2ccc3cccnc3c2O)c1 (configuration not stated) | -0.41 | ·
COc1ccc2[nH]cc(CCNC(=O)Nc3ccc(F)cc3)c2c1 | -0.34 | ·
COc1ccc(OC)c(C2CC(=O)N3CN(c4ccc(F)cc4)CSC3=C2C#N)c1 (configuration not stated) | 3.97* | -2.08
CCOC(=O)Cn1c(=O)oc2cc(S(=O)(=O)Nc3ccc(OC)cc3OC)ccc21 | -1.05 | 0.14
